Source: PubChem BioAssay
A647 autofl = compound autofluorescence in A647 spectral region; Compound fluorescence, A647 channel (570/671 nm), Tris buffer; max dye-equivalent concentration, M; 59,000 tested, under 10 active; AID 592; active means above 1 µM dye equivalent; inconclusive means 0.1 to 1 µM; inactive means 0.1 µM or less;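 also: values scaled relative to a standard on each plate; highest value over a series up to 38 µM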
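Fluorescence read (570 nm ex, 671 nm em) after 15 min RT incubation of compounds in 100 mM Tris buffer, pH 8.0; values expressed as dye-equivalent concentration against a six-point A647 standard series on each plate.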
A488 autofl = A488 region autofluorescence | AID 591 | max dye equivalency, M | compound autofluorescence, A488 spectral region, dye equivalency; hits give high values | 0.1% of 59,000 active; active = above 10 nM dye equivalent; inconclusive = 1 to 10 nM; inactive = 1 nM or less; about half of its hits are not listed in these tables;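 also: highest value over a series up to 38 µM; compound alone in buffer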
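Compound autofluorescence was read in 100 mM Tris pH 8.0 after 15 min at room temperature, ex 480 nm/em 540 nm. Intensities were converted to A488 dye-equivalent concentration using an on-plate six-point A488 standard curve.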
AID923 = qHTS Assay for Allosteric/Competitive Inhibitors of Caspase-1: Spectroscopic Profiling in AFC Spectral Region; compound fluorescence, AFC spectral region (405/520 nm); almost no hit is shown here; Potency, µM (doses to about 57.5 µM), inactives show at the highest dose fluorescence increase, most hits filed as activators; 1.1% of 75,000 active; active = well fitted activation curve with a large enough effect; inconclusive = small, poorly fitted or top-dose-only effect;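 also: potency is read from the fitted curve at half-maximal effect; 0% is about no effect; scaled to a free AFC standard on each plate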
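Compound autofluorescence profiled at 405 nm ex/520 nm em during kinetic caspase 1 run (50 nM enzyme, 5 uM Ac-WEHD-AFC, HEPES pH 7.5, 10 mM DTT). Titration up to 57 uM; baseline from regression intercept, normalized to AFC standard curve.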
TSHR ag = agonists of human thyroid stimulating hormone receptor; Potency, µM (top dose mostly 57.1 µM), without a hit: top-dose activation, usual class: activators; HEK293-CNG-TSHR cells (CNG channel as cAMP sensor), membrane potential dye, cAMP; 0.48% of 73,000 active; AID 926; active = well fitted activation curve of enough size with the parental cells flat; inconclusive = any curve in the parental cells; inactive = parental cells flat and receptor cells flat or falling; also: potency is read from the fitted curve at half-maximal effect; % of control where 0% means no effect; weak receptor curves with flat parental cells got no call and are not listed
Target sequence (P16473 whole entry, looked up): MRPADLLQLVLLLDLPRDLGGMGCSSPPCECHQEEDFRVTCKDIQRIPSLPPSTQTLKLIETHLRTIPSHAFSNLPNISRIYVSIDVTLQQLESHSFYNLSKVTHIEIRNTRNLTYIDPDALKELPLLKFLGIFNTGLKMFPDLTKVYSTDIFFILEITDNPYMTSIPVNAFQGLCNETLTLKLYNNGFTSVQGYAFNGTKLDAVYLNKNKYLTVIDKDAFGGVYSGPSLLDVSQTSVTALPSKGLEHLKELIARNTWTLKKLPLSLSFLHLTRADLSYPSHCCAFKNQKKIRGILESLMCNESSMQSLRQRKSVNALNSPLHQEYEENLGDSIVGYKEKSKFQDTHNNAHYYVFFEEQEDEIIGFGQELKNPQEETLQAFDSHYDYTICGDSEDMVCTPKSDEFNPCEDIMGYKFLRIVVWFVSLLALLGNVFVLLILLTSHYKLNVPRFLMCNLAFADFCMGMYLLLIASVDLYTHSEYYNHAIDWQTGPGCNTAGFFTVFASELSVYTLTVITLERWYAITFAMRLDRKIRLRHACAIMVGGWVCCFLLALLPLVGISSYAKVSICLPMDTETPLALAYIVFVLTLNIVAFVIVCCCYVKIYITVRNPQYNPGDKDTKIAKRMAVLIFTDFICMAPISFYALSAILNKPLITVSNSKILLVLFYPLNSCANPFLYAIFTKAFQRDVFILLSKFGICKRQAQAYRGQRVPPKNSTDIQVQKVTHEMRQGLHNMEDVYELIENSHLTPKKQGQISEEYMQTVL
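HEK 293 cells stably expressing TSHR and a cAMP-gated CNG channel; parental CNG-only cells as counterscreen. Cells preloaded 60 min with membrane potential dye plus 100 uM RO 20-1724, then compound 30 min; fluorescence read at 590 nm.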
Resorufin fluor = resorufin region autofluorescence; Compound fluorescence, resorufin region 547/598 nm, buffer; hits give high values; max dye-equivalent concentration, M; 0.04% of 59,000 active; active = above 10 nM dye equivalent; inconclusive = 1 to 10 nM; inactive = 1 nM or less; a few of its hits are not listed in these tables; also: highest value over a series up to 38 µM
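Compounds in 100 mM Tris, pH 8.0, incubated 15 min at room temperature, then fluorescence read at 547 nm excitation/598 nm emission. Signal converted to dye-equivalent concentration via an on-plate six-point resorufin standard curve, per compound concentration.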
Numbers without * were called inactive; i = inactive; ? = inconclusive; nt = not tested or not shown; [ ] = remark or other dose.

SMILES | A647 autofl | A488 autofl | AID923 | TSHR ag | Resorufin fluor
COc1ccccc1Nc1nc2ccccc2n1C | nt | nt | -1.7% | -5.5% | nt
O=C(Cn1ncc2c1-c1ccccc1OC2)N1CCN(c2ccccn2)CC1 | nt | nt | -0.6% | -12.0% | nt
CCOC(=O)N1CCN(C(=O)Nc2ccc(Cl)cc2Cl)CC1 | 2e-09 | i | -1.3% | 4.8% | i
CCCCCCN(CCCCCC)C(=O)Cc1c(-c2ccc(F)cc2)[nH]c2ccccc12 | 2.9e-09 | i | -1.4% | ? | i
O=C(COC(=O)c1ccccc1C(=O)c1ccccc1)c1ccco1 | 3.1e-09 | i | 0.0% | 6.5% | i
Nc1c(C(=O)NCCc2ccccc2)nnn1Cc1ccccc1 | 1e-09 | i | 0.7% | nt | i
CCC1=Nc2ccccc2-c2nnc(SC)nc2O1 | 7.6e-09 | i | 0.6% | -20.5% | i
O=C(Nc1ccc2c(c1)OC1(CCCC1)O2)C1CC1 | 2.95e-08 | i | -1.7% | 4.1% | i
CCOc1ccc(CNC(=O)C2CC(=O)N(C3CCCC3)C2)cc1OC (configuration not stated) | 1e-09 | i | -0.6% | -5.1% | i
O=C(Nc1ccc(-c2cn3ccsc3n2)cc1)c1ccc(F)c(S(=O)(=O)N2CCOCC2)c1 | 3.7e-09 | i | 0.4% | 15.1% | i
Cc1onc(-c2c(F)cccc2Cl)c1C(=O)Nc1nc2c(s1)CCCC2 | 3.76e-08 | i | 2.2% | -1.8% | i
CCOc1ccc(-c2nnc3n2N=C(c2ccc(OC)cc2)CS3)cc1 | nt | nt | 5.0% | 7.9% | nt
C=C[C@@]1(C)C=C2CC[C@@H]3[C@](C)(CCC[C@@]3(C)C(=O)O)[C@H]2CC1 | 2.4e-09 | i | nt | -13.8% | i
Cc1nc2ccc(F)cc2cc1C(=O)NCC1CCCO1 (configuration not stated) | 1.8e-09 | i | 1.6% | -0.8% | i
CC(C)(C)NS(=O)(=O)c1ccc(CCC(=O)NCc2ccco2)cc1 | 1.87e-08 | i | 0.5% | -1.5% | i
COc1cc(=O)[nH]c(=O)n1C(=O)Cc1ccccc1 | nt | nt | 4.2% | 6.0% | nt
CCOC(=O)N1CCC(NC(=O)c2cc3c(-c4cccc(OC)c4)nn(C)c3s2)CC1 | 1e-09 | i | -0.1% | 10.5% | i
O=C1c2ccccc2C(O)(c2ncc[nH]2)N1C1CCCCC1 (configuration not stated) | nt | nt | 0.6% | 9.5% | nt
Cn1c(=O)c2c(nc(CN3CCN(C(=O)c4ccco4)CC3)n2Cc2ccccc2)n(C)c1=O | 3.63e-08 | i | 0.6% | 12.6% | i
CCCCCCN=C(C)C1=C(O)C(C(=O)OC)C(C)(C)CC1=O (configuration not stated) | 2.34e-08 | i | -0.6% | -8.8% | i
O=C(Nc1ccc2c(c1)OCCO2)c1ccc(Br)c(S(=O)(=O)N2CCOCC2)c1 | nt | nt | 0.5% | ? | nt
O=C1c2ccccc2C(=O)N1CCC(=O)N1CCc2ccccc21 | 2.3e-09 | i | 1.7% | nt | i
Cn1c(CO)nc2cc(N)ccc21 | nt | nt | -2.4% | 3.4% | nt
COCCn1nnnc1C(c1cc2ccc(C)cc2[nH]c1=O)N(Cc1ccco1)Cc1cccs1 (configuration not stated) | 1e-09 | i | 1.6% | 18.4% | i
CCCc1nc2oc3c(NCCOCCO)ncnc3c2c2c1COC(C)(C)C2 | 1.6e-09 | i | -1.5% | 8.9% | i
Cc1cc(NC(=O)C2CC(c3cccc(Br)c3)=NO2)no1 (configuration not stated) | 2.39e-08 | i | 0.7% | -0.9% | i
CC(=O)CCc1ccc2oc(C(=O)O)c(C)c2c1 | 1.8e-09 | i | 0.2% | -6.2% | i
CC(C)C(NS(=O)(=O)c1cccs1)C(=O)N1CCc2ccccc2C1 (configuration not stated) | 6.7e-09 | i | 1.3% | 1.4% | i
CCN(CC)S(=O)(=O)N1CCC(C(=O)NCC2COc3ccccc3O2)CC1 (configuration not stated) | 1e-09 | i | -1.2% | 9.9% | i
COc1ccc(Cc2nn3c(-c4ccccc4Br)nnc3s2)cc1 | 1e-09 | i | 0.9% | ? | i
O=C(Nc1ccc(N2CCN(Cc3ccccc3Cl)CC2)cc1)c1cccnc1 | 1e-09 | i | 3.8% | -13.6% | i
Cc1sc2ncn(CCn3cnc4sc(C)c(C)c4c3=O)c(=O)c2c1C | 1.48e-08 | i | 1.6% | 15.8% | i
CC12CC(NC(=O)N1CCc1ccccc1)c1cc(Cl)ccc1O2 (configuration not stated) | 4.14e-08 | i | 0.3% | 5.1%[11.4 µM] | i
CCN1CCN(CCCNC(=O)C2c3ccccc3C(=O)N(C)C2c2ccc(OC)cc2)CC1 (configuration not stated) | 1.3e-09 | i | 2.1% | -0.2% | i
CC(C)(C)n1ncc2c(=O)n(Cc3ccc(Cl)cc3Cl)cnc21 | 1.17e-08 | i | 1.4% | ? | i
O=C(COC(=O)c1cccc(S(=O)(=O)N2CCc3ccccc3C2)c1)NCc1ccco1 | 3.87e-08 | i | 0.4% | 8.3% | i
COC(=O)CSc1nc2ccccc2c(=O)n1C | 4.04e-08 | i | 1.6% | 1.1% | i
O=C(Nc1ccc2c(c1)oc1ccc(S(=O)(=O)N3CCCC3)cc12)C1CC1 | 3.4e-09 | i | -4.3% | 28.3% | i
Cn1c(=O)c2c(nc(N3CCc4ccccc4C3)n2Cc2ccccc2F)n(C)c1=O | 1e-09 | i | 0.3% | ? | i
CCOC(=O)c1ccc2ncc(C(=O)OCC)c(NCc3ccco3)c2c1 | 3.1e-09 | i | 1.1% | ? | i

Pulled by compound from the list above (2):
SMILES | A647 autofl | A488 autofl | AID923 | TSHR ag | Resorufin fluor
O=C(Nc1ccc2c(c1)oc1ccc(S(=O)(=O)N3CCCC3)cc12)C1CC1 | 3.4e-09 | i | -4.3% | 28.3% | i
COC(=O)CSc1nc2ccccc2c(=O)n1C | 4.04e-08 | i | 1.6% | 1.1% | i

Continued.
SMILES | A647 autofl | A488 autofl | AID923 | TSHR ag | Resorufin fluor
CN(Cc1ccco1)c1nc(-c2ccccc2Cl)nc2ccccc12 | 1e-09 | i | -3.5% | 18.4% | i
CC(C)(C)c1cc(C(=O)N2CCc3ccccc32)ccn1 | 2.89e-08 | i | 2.5% | 3.0% | i
CN(C)CCCNc1oc(-c2ccccc2)nc1C#N | 1e-09 | i | -0.3% | 11.0% | i
CCCS(=O)(=O)N1CCc2cc(OC)c(OC)cc2C1 | 1.1e-09 | i | -1.0% | ? | i
C=C1N(CCCCCC(=O)O)C(=O)OC12CCCCC2 | 1e-09 | i | 1.5% | 3.4%[11.4 µM] | i
Cc1cc(C)n2nc3ccccc3c2n1 | 1e-09 | i | 5.8% | ? | i
O=C1c2ccccc2C(=O)N1CCCCCc1nc(-c2ccccc2)no1 | 1e-09 | i | -0.4% | ? | i
CN1CCN(c2nc(N3CCN(c4ccccc4)CC3)ncc2F)CC1 | 2.1e-09 | i | -0.5% | nt | i
O=C(CSc1nnc(C2CC2)n1Cc1ccccc1)c1ccc(S(=O)(=O)N2CCOCC2)cc1 | 8e-09 | i | 0.4% | ? | i
CCCOc1ccc(-c2nnc(-c3ccco3)o2)cc1 | 4.4e-09 | i | 1.2% | ? | i
COc1ccc2nc(NC(=O)CCNS(=O)(=O)c3ccc4c(c3)oc(=O)n4C)sc2c1 | 1.44e-08 | i | -0.9% | 14.9% | i
CCn1nc(C(=O)OCC(=O)NCCN2C(=O)CSC2=O)c2ccccc2c1=O | 6.4e-09 | i | 0.2% | 0.6% | i
COC(=O)c1ccc(C2/C(=C(\O)c3cccc(OC)c3)C(=O)C(=O)N2CCCN2CCOCC2)cc1 (configuration not stated) | 1e-09 | i | nt | nt | i
S=c1[nH]nc(SCc2ccccc2Cl)c2[nH]cnc12 | 1.35e-08 | i | -5.6%[11.5 µM] | 12.2%[11.4 µM] | i
O=C(Oc1ccc2ccccc2c1Cl)N1CCCC1 | 1e-09 | i | -0.6% | -9.9% | i
COc1ccc(Cn2c(C3CC3)nc3ccc(NC(=O)c4ccco4)cc3c2=O)cc1 | 1e-09 | i | 0.5% | nt | i
N#Cc1cccc(NC(=O)c2ccccc2C(=O)O)c1 | 1e-09 | i | 0.2% | -6.5% | i
Cc1noc(C)c1-c1nc(NCc2cccnc2)c2ccccc2n1 | 3.5e-09 | i | -1.8% | nt | i
O=c1oc2ccccc2c(O)c1C=NCc1ccccn1 | 6.5e-09 | i | -0.3% | 5.0% | i
O=C(OCc1ccccc1)c1ccc(Br)o1 | 1.04e-08 | i | -0.5% | ? | i

Rewritten with each value named: part of the list above.
COc1ccc(Cn2c(C3CC3)nc3ccc(NC(=O)c4ccco4)cc3c2=O)cc1
  A647 autofl: 1e-09
  A488 autofl: i
  AID923: 0.5%
  TSHR ag: nt
  Resorufin fluor: i
N#Cc1cccc(NC(=O)c2ccccc2C(=O)O)c1
  A647 autofl: 1e-09
  A488 autofl: i
  AID923: 0.2%
  TSHR ag: -6.5%
  Resorufin fluor: i
Cc1noc(C)c1-c1nc(NCc2cccnc2)c2ccccc2n1
  A647 autofl: 3.5e-09
  A488 autofl: i
  AID923: -1.8%
  TSHR ag: nt
  Resorufin fluor: i

The listing continues.
SMILES | A647 autofl | A488 autofl | AID923 | TSHR ag | Resorufin fluor
COc1cccc(C2C(C(=O)c3sc(C)nc3C)=C(O)C(=O)N2CCN2CCOCC2)c1OC (configuration not stated) | 1e-09 | i | nt | nt | i
COc1ccc2[nH]cc(CCNc3ncncc3-c3ccc4c(c3)OCO4)c2c1 | 1.2e-09 | i | 18.1% | ? | i
O=C(NC1=NCCS1)C1COc2ccccc2O1 (configuration not stated) | 5.82e-08 | i | -1.4% | -11.5% | i
Cc1ccc(CSc2nnc(-c3ccccn3)n2C)cc1 | 3.9e-09 | i | -1.1% | 18.7% | i
NC(=O)c1ccc(-n2nnnc2Oc2ccccc2C(=O)N2CCOCC2)cc1 | 1.64e-08 | i | -0.3% | 2.8% | i
CCNC(=O)CN(Cc1ccccc1)S(=O)(=O)c1ccccc1 | nt | nt | -1.2% | ? | nt
COc1ccc(C(=O)N2CCC3(CC2)CN(C(=O)Nc2ccccc2)C3)cc1 | 1.11e-08 | i | -1.9% | ? | i
COC(=O)CN(c1cccc(OC)c1)S(C)(=O)=O | 8.4e-09 | i | 0.3% | 5.1% | i
CC1CCCCN1CCCn1c(=S)[nH]c2ccccc2c1=O (configuration not stated) | 3.55e-08 | i | -0.3% | 6.0% | i
O=C(CCCCCn1c(SCC(=O)c2ccccc2)nc2ccccc2c1=O)NCc1ccco1 | 6.2e-09 | i | 0.6% | ? | i
COC(=O)c1cc(NC(=O)Cc2coc3cc(OC)ccc23)cc(C(=O)OC)c1 | 2.18e-08 | i | -1.6% | 9.5% | i
O=C(c1cc(C(F)(F)F)cc(C(F)(F)F)c1)N1CCC2(CC1)CN(c1ccccn1)C2 | 4.2e-09 | i | 1.7% | 1.8% | i
COc1ccccc1N(CC(O)CN1C(=O)NC(C)(C)C1=O)S(=O)(=O)c1ccc(C)cc1 (configuration not stated) | nt | nt | -0.1% | 1.2% | nt
CCc1c(C)nc2ncnn2c1NCCc1ccc(OC)cc1 | 1e-09 | i | -0.4% | ? | i
COCCNC(=O)CNS(=O)(=O)c1ccc2nc(C)sc2c1 | 6.7e-09 | i | -0.4% | 9.6%[11.4 µM] | i
Cc1cc(=O)n2[nH]c(COc3ccccc3)nc2n1 | 1.4e-09 | i | 0.8% | -0.5% | i
O=C(c1cccs1)N1CCN(CCc2ccccc2)CC1 | 2.77e-08 | i | 1.2% | -4.9% | i
COc1ccc(N2CCCn3c2nc2c3c(=O)n(Cc3ccc(F)cc3)c(=O)n2C)c(OC)c1 | 6e-09 | i | 2.1% | 10.5% | i
COc1ccc(OCc2ccc(C(=O)O)cc2)cc1 | 3.7e-08 | i | -0.9% | -5.0% | i
O=C1CCN(S(=O)(=O)c2ccccc2)C2CCCCC12 (configuration not stated) | 1e-09 | i | -0.5% | ? | i

Not all compounds are listed. The share of hits here may be higher or lower than overall.
